Sa RN4220 lethal = kills Staphylococcus aureus RN4220. S. aureus RN4220 growth, OD600, 16 h. inhibition, % (test concentration not listed). actives 0.33% (n = 330,000). AID 1259311;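 active = z-score of -3 or lower and OD600 up to 0.18 on both plates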;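 note: plate controls were untreated cells for no effect and reference antibiotic for full effect; stock transfer was 100 nL into about 80 µL; one replicate is shown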
BJeLR viability = BJeLR cell viability loss; BJeLR (HRASV12) viability, CellTiter-Glo ATP luminescence, 48 h; reference of the scale not given here; inhibition, % (no concentration beside the values); actives 0.17% (n = 300,000); AID 1554;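 active = replicate mean above 50%; inconclusive = above 50% but judged a plate artefact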;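 note: 50 nL library stock added to about 25 µL; numbers are from one replicate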
PrP UTR inh = inhibition of PrP 5' UTR reporter expression; cell-based PrP 5' UTR mRNA reporter, plate reader; inhibition, % (test concentration not listed); actives 0.35% (n = 340,000); AID 488862;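 active = every replicate at 50% or more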;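 note: 0 = median of the neutral control wells; tested in H4 reporter cells; numbers are from one replicate; inactives centre near -14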
Sa ugtP lethal = compounds lethal to S. aureus RN4220 ugtP deletion mutant; OD600 growth, 16 h; some inactives read as strong as hits; growth inhibition, % (test concentration not listed); actives 0.54% (n = 330,000);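 active = z-score under -3 and OD600 up to 0.15 on both plates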;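 note: plate controls were untreated wells for no effect and antibiotic for full effect; wells of about 80 µL received 100 nL stock; the first replicate is given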
Bead autofluor = counter-screen for toxin protease inhibitors: compound fluorescence; compound autofluorescence counterscreen, microsphere flow cytometry; stronger effect = higher value; fluorescence intensity (test concentration not listed); actives 3.1% (n = 360,000);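 active = at least 3 SD above the mean of all compounds, about 16000 in these data; inconclusive = too few beads counted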;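 note: 100 nL of 1 mM stock went into each well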
Mtb hypoxia rep = reduces hypoxia-regulated biosensor signal in M. tuberculosis | M. tuberculosis hypoxia-regulated fluorescent reporter, fluorescence | fluorescence inhibition, % (no concentration beside the values) | actives 0.1% (n = 300,000) | AID 1159583;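 active = 35 to 45% if threefold the growth effect, above 45% if 1.5-fold the growth effect; inactive = the rest, general growth blockers included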;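 note: wells of about 50 µL received 100 nL stock; 0% = vehicle wells and 100% = reference inhibitor wells; whole bacteria with a GFP reporter of the hypoxia response; strong numbers were not always called active; many hits fall short of the cut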
Mtb hypoxia rep growth = recorded beside Mtb hypoxia rep, whose call it bears; growth inhibition, %; measured here: M. tuberculosis growth (absorbance);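 0% = vehicle and 100% = reference antibiotic; read after six days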
An asterisk follows results filed as active; ? = inconclusive; · = not tested or not shown; & = joins results of further samples. Outcome played no part in choosing rows; any-hit rate near 4%.

canonical_smiles	Sa RN4220 lethal	BJeLR viability	PrP UTR inh	Sa ugtP lethal	Bead autofluor	Mtb hypoxia rep	Mtb hypoxia rep growth
C[C@]12c3[nH]c4cc(-c5ccco5)ccc4c3CCN1C(=O)[C@@H](CC(=O)NCCC1=CCCCC1)C[C@@H]2C(=O)N1CCCCC1	-4.0	·	-13.7	-9.7	3461	0.6	-1.7
COc1ccc(NC(=O)NNC(=O)CCC(=O)Nc2ccccc2Cl)cc1	-0.7	-4.7	-16.0	7.4	4272	-3.3	4.9
CCC1(CC)NC(=O)N(CC(=O)OCn2nnc3ccccc3c2=O)C1=O	0.2	-6.3	-10.5	4.9	6954	6.9	2.7
FC(F)(F)c1cccc(Nc2ncnc3ccccc23)c1	6.6	6.1	1.9	-6.3	4366	-7.9	3.1
COc1ccc(-n2cccc2C=C2C(=N)N3N=C(C(C)C)SC3=NC2=O)cc1	7.9	·	·	-2.0	·	-0.4	-9.1
CCOC(=O)C1=C(C(=O)OCC)N(CC2CCCCC2)CCC1=O	1.0	·	-14.9	5.2	3488	-0.9	4.3
CCCCCCNCCn1cnc2c(N)ncnc21	2.3	6.8	-18.6	3.6	11661	8.7	7.3
CC(=O)NC(CC(=O)NCCc1ccccc1)c1ccccc1 (configuration not stated)	-0.1	1.0	-9.1	2.9	6188	6.7	-0.6
CCOC(=O)C1CCN(/C=C2/C(=O)NC(=S)N(c3ccccc3F)C2=O)CC1	-2.1	8.3	-12.6	3.0	2127	4.9	10.4
CN(c1ccccc1)c1nc(N)c([N+](=O)[O-])c(NCCO)n1	0.2	9.4	-7.6	4.4	5228	4.3	7.8
COc1cc(/C=C/C(=O)O)ccc1S(=O)(=O)N1CCCc2ccccc21	·	-7.2	-23.4	·	2067	·	·
COc1ccc(C(=O)N/C(=C\c2cn(C)c3ccccc23)C(=O)N2CCOCC2)cc1	-1.1	1.2	3.2	-2.8	5544	-3.7	9.4
CNc1nc(NCc2ccccc2)c2ccccc2n1	-1.2	-7.4	-13.4	-3.5	3902	-10.4	-6.0
O=C(CCN1C(=O)/C(=C/c2ccccc2Cl)SC1=S)Nc1ccccn1	-3.6	-8.4	-15.7	-7.9	5168	0.4	5.9
CC(OC(=O)c1ccc(S(=O)(=O)N2CCCCC2)cc1)C(=O)NC1CCCCC1C (configuration not stated)	-0.4	0.4	-10.8	-5.6	6069	-15.2	-5.3
COc1ccccc1NC(=O)Cn1c(=O)n(C)c(=O)c2sc3c(c21)COC(C)(C)C3	6.1	-5.4	-1.7	4.0	4378	1.4	-3.1
CC1=C(C(N)=O)C(c2cccs2)n2ncnc2N1 (configuration not stated)	13.0	2.5	-20.6	4.3	3425	8.6	6.2
Cc1ccc(-c2ccc(C(=O)Nc3cccc(F)c3)o2)c2ccccc12	-4.2	-1.1	-38.6	0.3	3804	-1.3	14.6
CCCCCC(=O)N1CCN(c2ccc(C(C)=O)cc2F)CC1	-5.3	9.2	11.4	-1.6	4432	·	·
Cc1ccccc1NC1=CC(=O)CC(C)(C)C1	2.8	6.0	-38.2	1.5	7745	3.6	-2.2
Cc1c(OCC(=O)NCc2cccnc2)ccc2c3c(c(=O)oc12)CCC3	2.5	-1.5	-16.0	3.0	5964	-2.7	-4.1
COc1ccccc1CN1C(=O)CNC1=S	1.3	-0.6	5.5	13.7	6177	4.1	-0.4
COCCNc1oc(-c2ccc(Cl)cc2)nc1C#N	-2.9	6.2	-90.7	6.4	4590	3.9	5.1
CCOc1ccc2nc(NC(=O)CSc3nc4ccccc4c(=O)n3Cc3ccco3)sc2c1	-0.6	-0.7	-1.3	-1.2	?	5.1	3.2
O=C1NC(=O)c2cc3ccccc3cc21	2.9	·	-20.4	5.6	5687	3.3	-4.5
CCOC(=O)c1ccc(S(=O)(=O)N2CCN(C(=O)CSc3nc4ccccc4o3)CC2)cc1	1.0	-1.9	-7.3	8.6	2340	1.3	2.3
O=S(=O)(Nc1ccc(N=Nc2ccc(O)c3ccccc23)cc1)c1ccccc1	0.0	-1.4	-4.8	-3.0	2137	7.2	-3.1
CCCN1C(=O)C(=NOCC(=O)NCC(F)(F)F)c2ccccc21	5.6	·	·	-5.8	·	16.0	4.0
C=CCn1c(SCC(=O)Nc2ccc3c(c2)OCO3)nnc1-c1ccccc1	5.1	-10.5	-1.2	12.7	3769	·	·
Cc1c(CCOC(=O)C23CC4CC(CC(C)(C4)C2)C3)sc[n+]1Cc1ccccc1	68.7	8.3	-16.6	100.2*	6757	5.0	17.3
O=C(/C=C/c1ccc(-c2ccccc2[N+](=O)[O-])o1)c1ccc(Br)cc1	1.5	-1.0	-29.3	-27.5	21485*	4.4	1.4
CCOP(=S)(OCC)SCCSCC	9.6	·	-0.6	3.6	5118	9.6	8.4
CCOC(=O)c1c(NC(=O)CSc2nnnn2-c2ccc(OC)cc2)sc(C)c1C	9.9	15.4	·	9.2	7878	4.4	5.9
Clc1ccccc1CSc1nnc(-c2ccccn2)n1Cc1ccco1	6.4	2.4	-21.5	0.9	9629	6.9	8.5
CCCc1cc(N2CCCC2)n2nc(C)c(-c3ccccc3)c2n1	5.0	3.8	-15.7	26.3	9633	4.4	18.7
O=C(NCCc1ccccn1)c1cncc(Br)c1	-1.5	1.0	-2.7	2.3	6104	4.7	14.1
CCN(CC)C(=O)COC(=O)c1ccc(O)cc1	3.1	5.8	-20.9	13.9	3787	-1.7	3.9
Cc1noc(C)c1C(=O)OCC(=O)Nc1cc(Cl)ccc1Oc1ccccc1	-6.0	5.1	4.3	-20.7	2909	-0.9	-10.8
N#Cc1nc(-c2ccco2)oc1NCCCn1ccnc1	-1.9	1.1	-13.5	-1.0	3112	1.3	8.3
COc1ccc([C@H]2CC(=O)c3c(O)cc(O)cc3O2)cc1O	9.3	-10.7	-26.5	-11.6	4033	13.0	1.6
O=C(O)c1ccc(CNC(=O)c2ccc3c(c2)OCCO3)cc1	3.4	-7.1	15.5	0.3	3132	-0.4	-2.3
S=c1nn[nH]n1C12CC3CC(CC(C3)C1)C2	8.0	6.5	-14.1	-4.6	12108	16.4	1.0
CCN(CC)C(=O)Cn1cc(S(=O)(=O)CC(=O)N2CC(C)OC(C)C2)c2ccccc21 (configuration not stated)	-0.5	-3.6	-15.9	4.7	5289	0.1	-2.9
NC(=O)C1CCN(Cc2nc(-c3ccccc3)no2)CC1	-1.6	-1.5	-25.5	-5.9	9628	4.3	4.3
O=C(Cc1n[nH]c(=O)c2ccccc12)Nc1cccc(S(=O)(=O)N2CCCCCC2)c1	4.1	·	-9.9	11.0	6680	13.3	6.2
O=C1N/C(=N/O)S/C1=C\c1ccccc1-n1cccn1	-1.5	-13.2	-34.1	1.6	3928	8.6	7.1
CCCCC(O)(c1ccc(OC)cc1)C(CN1CCOCC1)c1ccccc1 (configuration not stated)	0.2	-5.6	1.3	0.4	3814	-1.8	1.8
CCN(CC)CCCN=Cc1c(O)n(-c2c(C)cccc2C)c(=O)c2ccccc12	-1.5	-30.9	·	-13.4	4627	8.1	5.0
O=C(Nc1nnc(SCc2c(Cl)cccc2Cl)s1)C1CC(=O)N(c2ccc3c(c2)OCCO3)C1 (configuration not stated)	19.6	1.8	-15.2	16.3	4618	9.9	2.4
COc1ccc(-n2nc3c(N)n[nH]c3cc2=O)cc1	-1.1	0.5	-19.7	5.4	2001	-0.6	1.4
COc1ccc(CC(=O)NC2CCCc3ccccc32)cc1 (configuration not stated)	8.4	-28.7	-13.7	3.6	4086	7.0	13.1
COc1ccc(-c2nn(CCC#N)cc2C(=O)Nc2ccccc2)cc1OC	-0.2	2.9	-39.4	5.4	3474	-0.6	-6.0
CC(=O)OC1CC2C(C)(C)C(=O)C=C[C@]2(C)C2CC[C@@]3(C)C(c4ccoc4)OC(=O)C4O[C@]43[C@]12C (some centres not stated)	3.2	·	·	5.9	·	3.7	-2.5
CCOC(=O)C1(Cc2ccc(OC)cc2)CCN(C(=O)c2cccc3nccnc23)CC1	1.0	-3.3	-26.2	3.8	2113	12.4	11.9
Cc1cccn2cc(COc3ccc(-c4ccccc4)cc3)nc12	4.8	13.5	-26.4	21.5	3863	2.5	5.9
COc1ccc(/C=C(/NC(=O)c2ccccc2)C(=O)NCc2ccco2)cc1	0.1	-3.3	0.9	3.9	5474	0.9	-1.3
Cc1ccn2cc(-c3cccc(NC(=O)CCC(=O)O)c3)nc2c1	1.4	7.8	-8.2	5.4	3698	17.0	5.1
Cc1ccc(CCNS(=O)(=O)c2cc3c(cc2C)NC(=O)CO3)cc1	17.3	4.7	-4.0	19.5	6121	-0.3	6.6
COC(CC1OC1C(=O)C(C)OCc1ccccc1)OC (configuration not stated)	8.1&0.8&2.9&-1.8&3.5	·	·	-1.4&1.3&-2.5&4.8&-1.0	·	15.6&4.8&-2.2&4.9&10.2	9.6&9.0&4.5&7.2&7.2
CC1CN(C(=S)Nc2ccccc2)CC(C)O1 (configuration not stated)	-0.1	-5.5	-11.7	5.0	3139	3.6	0.0

Further structures follow.
canonical_smiles	Sa RN4220 lethal	BJeLR viability	PrP UTR inh	Sa ugtP lethal	Bead autofluor	Mtb hypoxia rep	Mtb hypoxia rep growth
CCOC(=O)N1CCN(C(=O)CCN2C(=O)COc3ccccc32)CC1	3.2	10.8	-22.0	4.9	5321	6.2	-6.2
Cc1ccc(NC(=O)CSc2nc(N)cc(=O)[nH]2)cc1S(=O)(=O)N1CCOCC1	1.2	2.1	-18.3	0.1	4042	15.8	7.3
Cc1ccccc1C(=O)Nc1nnc(CC(=O)NN=Cc2ccco2)s1	0.0	·	·	-9.1	·	3.4	-3.1
CN(Cc1cn(C)nc1-c1cccc(Cl)c1)Cc1nccn1C	3.3	6.4	-5.6	7.6	5709	5.7	-5.0
Cc1cccc(C2c3[nH]c4ccccc4c3CCN2C(=O)c2nn(C)c(=O)c3ccccc23)n1 (configuration not stated)	3.2	-0.5	-13.2	-5.9	2686	7.8	-3.3
COc1ccccc1-c1noc(-c2cccs2)n1	5.8	-8.5	·	-1.7	10409	4.5	3.2
Clc1cccc(Cl)c1C1N2CCCN12 (configuration not stated)	-0.4	0.3	-7.9	8.8	4221	·	·
NC(=S)N/N=C\c1ccc(-c2cccc(Cl)c2Cl)o1	·	-7.0	-15.0	·	3123	·	·
COc1ccc(CC(=O)OCC(=O)c2ccc(OC)cc2)cc1	3.2	-2.4	-27.3	-0.7	2298	7.0	5.2

Entries of single compounds as entered above. Values in the order: Sa RN4220 lethal	BJeLR viability	PrP UTR inh	Sa ugtP lethal	Bead autofluor	Mtb hypoxia rep	Mtb hypoxia rep growth
Listed for Cc1ccccc1C(=O)Nc1nnc(CC(=O)NN=Cc2ccco2)s1 → 0.0	·	·	-9.1	·	3.4	-3.1
Listed for CCOC(=O)N1CCN(C(=O)CCN2C(=O)COc3ccccc32)CC1 → 3.2	10.8	-22.0	4.9	5321	6.2	-6.2
Listed for Cc1ccc(NC(=O)CSc2nc(N)cc(=O)[nH]2)cc1S(=O)(=O)N1CCOCC1 → 1.2	2.1	-18.3	0.1	4042	15.8	7.3
Listed for COc1ccccc1-c1noc(-c2cccs2)n1 → 5.8	-8.5	·	-1.7	10409	4.5	3.2
Listed for Clc1cccc(Cl)c1C1N2CCCN12 (configuration not stated) → -0.4	0.3	-7.9	8.8	4221	·	·

In the list so far, 2 have a nitro group on carbon.
canonical_smiles	Sa RN4220 lethal	BJeLR viability	PrP UTR inh	Sa ugtP lethal	Bead autofluor	Mtb hypoxia rep	Mtb hypoxia rep growth
CN(c1ccccc1)c1nc(N)c([N+](=O)[O-])c(NCCO)n1	0.2	9.4	-7.6	4.4	5228	4.3	7.8
O=C(/C=C/c1ccc(-c2ccccc2[N+](=O)[O-])o1)c1ccc(Br)cc1	1.5	-1.0	-29.3	-27.5	21485*	4.4	1.4

Bioassay records (PubChem BioAssay)
